P. yoelii liver – Plasmodium liver-stage growth inhibition, dose response, imaging, Malaria Box, P. yoelii, HepG2-A16-CD81EGFP (AID 602156); calls after a first round at 10 µM; hits with a dose series show IC50 in µM; 5,700 tested, 4.8% active; P. yoelii liver stage in HepG2-A16-CD81EGFP, imaging; first-round cut-off not given here; in the data active = a potency from the dose series;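 also: infected cells exposed to compound for 48 hours before fixation; stained parasite area by imaging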
Numbers without * were called inactive; i = inactive.

compound	P. yoelii liver
CCCN1CCN(C(=O)CCNC(=O)Cn2cnc3ccccc3c2=O)CC1	i
C=CCCC(=O)N1CCC(C(=O)Nc2ccc(-c3nc4ccccc4o3)cc2)CC1	i
Cc1nc(N2CCC(C)CC2)c2c(C)c(C(=O)Nc3ccc(F)cc3)sc2n1	i
C(#Cc1ccccc1)C[N+]1(CC#Cc2ccc(C#CC[N+]3(CC#Cc4ccccc4)CCCCC3)cc2)CCCCC1	i
CCC1=NN2C(=N)/C(=C/c3cn(CCOc4cccc(C)c4)c4ccccc34)C(=O)N=C2S1	i
CCCCC(=O)N(CCCC(C)Nc1cc(OC)cc2cccnc12)Cc1ccccc1OC (centres undefined)	i
CCOC(=O)c1cnc2c(C)cccc2c1Nc1ccc(C(C)=O)cc1	i
COc1cc(-c2nc(-c3cccc(C(F)(F)F)c3)c(-c3ccccc3)[nH]2)cc(OC)c1O	i
Cc1oc(-c2cccc(C(F)(F)F)c2)cc1C(=O)O	i
COc1ccc(C2=C(c3ccc(OC)cc3)C3(c4ccccc4)C(=O)C2(c2ccccc2)C2C(=O)N(c4ccccc4[N+](=O)[O-])C(=O)C23)cc1 (centres undefined)	i
COCCNC(=O)c1ccc(OC2CCN(CC(c3ccccc3)c3ccccc3)CC2)c(OC)c1	i
O=C(Nc1cccc(Cl)c1)c1cc2ccccc2cc1O	i
O=C(NCc1ccco1)c1ccc(OC2CCN(Cc3ccncc3)CC2)c(Cl)c1	i
CCC(c1nc2ccccc2c(=O)n1-c1ccc(Cl)cc1)N(Cc1ccccc1)C(=O)Nc1c(C(C)C)cccc1C(C)C (centres undefined)	i
CN1CCN=C1c1ccc(NC(=O)Nc2ccc(NC(=O)Nc3ccc(C4=NCCN4C)cc3)cc2)cc1	i
CCCCc1ccc(NC(C)=O)cc1	i
Nc1ccc(-c2nc(-c3ccc(N)cc3)c3ccccc3n2)cc1	i
CCCCCc1ccc(C(=O)Oc2ccccc2-c2nc3cc(C)ccn3c2NC(C)(C)CC(C)(C)C)cc1	i
CC[C@H](C)C[C@H]1CC[C@](O)([C@](C)(O)C(=O)N[C@@H]2C(=O)N3NCCC[C@@H]3C(=O)N(O)[C@@H](C)C(=O)NCC(=O)N3NCCC[C@H]3C(=O)N(O)[C@H](C)C(=O)O[C@H]2C(C)C)O[C@@H]1C	i
O=C(Nc1ccc2oc(-c3ccc(I)cc3)nc2c1)c1ccc([N+](=O)[O-])o1	i

Filtered by structure, the compounds so far with sulfur.
compound	P. yoelii liver
Cc1nc(N2CCC(C)CC2)c2c(C)c(C(=O)Nc3ccc(F)cc3)sc2n1	i
CCC1=NN2C(=N)/C(=C/c3cn(CCOc4cccc(C)c4)c4ccccc34)C(=O)N=C2S1	i

Later entries
compound	P. yoelii liver
Cn1c(-c2ccc([N+](=O)[O-])cc2)[n+](C)c2ccccc21	i
O=C(Nc1ccc(Oc2ccc(OC(F)(F)F)cc2)cc1)C1CC1	i
CCOC(=O)c1c(NC(=O)CSc2nnc(CNC(=O)c3ccc(C)c(C)c3)n2C2CCCCC2)sc2c1CCC2	i
CCC(c1nc2ccccc2c(=O)n1-c1cccc(Cl)c1)N(CCc1ccccc1)C(=O)c1ccc(F)cc1 (centres undefined)	i
CCOC(=O)c1nnn(-c2nonc2N)c1-c1ccc(Cl)cc1	i
CC(=O)N(C1=C(N2CCOCC2)C(=O)c2ccccc2C1=O)c1ccc(F)cc1	i
Cc1nccn1CC(C)C(=O)N1CCCC(n2nc(-c3cccs3)ccc2=O)C1 (centres undefined)	i
CCC(C)(C)c1ccc(OCC(O)CNCc2ccccc2)c(C(C)(C)CC)c1 (centres undefined)	i
CC(C)CN(CC(=O)Nc1cc(C(C)(C)C)nn1-c1ccccc1)C(=O)Cc1cccs1	i
O=C(Nc1ccc2c(c1)S(=O)(=O)c1cc(NC(=O)c3cccs3)ccc1-2)c1cccs1	i
CCc1ccc2c(c1)C1(NN=C(c3ccc(C)cc3)S1)C(=O)N2 (centres undefined)	i
O=C1c2ccc3c4c(ccc(c24)C(=O)N1CCCCO)C(=O)N(CCCCO)C3=O	i
Clc1ccc2c(c1)c(-c1ccccc1)nc1nnnn12	i
CN(C)c1ccc(C2N(C)c3ccccc3N2C)cc1	i
COc1cc(-c2nc(-c3ccccc3)c(-c3ccc(O)cc3)[nH]2)cc(OC)c1O	i
Cc1cc(C)[n+]2nc(N)c3ccccc3c2n1	i
COc1ccc(N(CC(=O)Nc2cc(OC)ccc2OC)S(=O)(=O)c2ccc(C)cc2)cc1	i
CCN(CC)CCCN(Cc1cc2cc(OC)c(OC)cc2[nH]c1=O)C(=S)Nc1cccc(Cl)c1	0.163µM*
COCCCNC(=O)c1c(C)nc2scc(C)n12	i
Cc1ccc(-n2c(C(C)N(Cc3ccco3)C(=O)C3CCC3)nc3cc(Cl)ccc3c2=O)cc1 (centres undefined)	i
COc1cc(NC(C)CCCN(Cc2ccccc2OC)C(=O)C(Cl)Cl)c2ncccc2c1 (centres undefined)	i
CCCN1CCC(N2C[C@@H](NCc3ccc4c(c3)c3ccccc3n4CC)C[C@H]2C(=O)NCC)CC1	i
O=C(C1CC1)N1CCN=C1SCc1ccc(C(F)(F)F)cc1	i
CCOc1ccc2c(c1)cc(CN(C(C)=O)C1CCCC1)c1nnnn12	i
Cc1oc2c(c1C(=O)NCCCn1ccnc1)C(=O)c1ccccc1C2=O	0.119µM*
CCC(=O)Nc1cc(NC(=O)CSc2nc(C)c(CC)c(=O)[nH]2)ccc1C	i
O=C(Nc1ccc(C2=NCCN2)cc1)c1cc(Cl)c(C(=O)Nc2ccc(C3=NCCN3)cc2)cc1Cl	i
Cn1cc(S(=O)(=O)c2cccc(Cl)c2)c(=O)c2cc(F)c(N3CCCCC3)cc21	i
N#Cc1c2c(c(NCc3ccccn3)n3c1nc1ccccc13)CCCC2	i
CS(=O)(=O)c1cnc2ncnn2c1C1CCCN(C(=O)c2ccccn2)C1 (centres undefined)	i
CCOC(=O)c1sc(NC(=O)CSc2nnc(CNC(=O)COc3ccc(Cl)cc3)n2C)c(C(=O)OCC)c1C	i
O=C(O)CCCCCNc1ncnc2sc3c(c12)CCCC3	i
Cc1cc(N2CCN(Cc3ccc(F)cc3)CC2)n2c(nc3ccccc32)c1C#N	i
O=C(Nc1ccc(-c2cn3ccsc3n2)cc1)c1ccc(S(=O)(=O)N2CCCCCC2)cc1	i
CCOC(=O)c1cnc(SCC(=O)Nc2cc(C)ccc2C)nc1N	i
CCOC(=O)N1CCC(n2c(SCC(=O)N3CCCCCC3)nc3ccccc3c2=O)CC1	i
O=C(NCCCN1CCCC1=O)c1cccn2c(=O)c3ccc(Cl)cc3nc12	i
CN(C)CCCN(Cc1cc2cc3c(cc2[nH]c1=O)OCO3)C(=S)Nc1cccc(Cl)c1	0.818µM*
Cc1cc(C=C2SC(=Nc3ccccc3)N(C3CCCCC3)C2=O)c(C)n1-c1ccc(F)cc1	i
COc1ccc(NC(=O)c2cc3cc(C4(O)CCN(CC5CC=CCC5)CC4)ccc3o2)cc1 (centres undefined)	i
CCOC(=O)c1cc(-c2ccc(C)cc2)n(CCC(=O)Nc2cccc(C(F)(F)F)c2)c1C	i
CN1CCN=C1c1ccc(NC(=O)c2ccc(C(=O)Nc3ccc(C4=NCCN4C)cc3)cc2)cc1	i
C#CCNC(=O)c1ccc(OC2CCN(CC(c3ccccc3)c3ccccc3)CC2)c(OC)c1	i
CCNC(=S)NC1CC2CCCC(C1)N2CCc1ccccc1 (centres undefined)	i
COc1ccc(C=NNc2nc3ccc(Cl)cc3[nH]2)cc1OC	i
COc1ccc(OC)c(-c2ccc(O)c(CNCC3(N4CCCCC4)CCCCC3)c2)c1	i
Cc1ccc(CN2CCN(Cc3ccccc3)CC2)o1	i
CC(NS(=O)(=O)c1ccccc1)C(c1cccs1)N1CCN(c2ccccc2F)CC1 (centres undefined)	i
CCOC(=O)c1cnc2ccc(OCC)cc2c1NCCN(CC)CC	i
COC(=O)[C@@H]1C[C@@H](NC(=O)c2ccc(OC)cc2OC)CN1Cc1cccc2ccccc12	i

Later entries:
compound	P. yoelii liver
COc1ccc(OC)c(C(=O)c2oc3ccccc3c2NC(=O)CCl)c1	i
COc1ccc(-c2cnc3ccc(NC4CCOCC4)nn23)cc1OC	i
OCC[n+]1ccc(C=Cc2c[nH]c3ccccc23)cc1	i
CCOC(=O)c1[nH]c2ccc(C)cc2c1N=NN(C)C	i
O=C(c1ccc(Cl)cc1Cl)N1CCCC(C(F)(F)F)C1 (centres undefined)	i
OC(Cn1cnc(-c2ccccc2)c1-c1ccccc1)Cn1c2ccc(Cl)cc2c2cc(Cl)ccc21 (centres undefined)	i
COc1ccc(NC(=O)/C=C/c2ccccc2Cl)cc1	i
O=c1c(=O)n(Cc2cccc(C(F)(F)F)c2)ccn1CCc1ccccc1	i
CC(=O)N(Cc1ccc(F)cc1)C1=C(NCCc2ccccc2)C(=O)c2ccccc2C1=O	i
Cc1ccc(N=C2NC(=O)C(=Cc3cc(C)n(-c4cccc([N+](=O)[O-])c4)c3C)S2)cc1	i
CC(C)Nc1nc(-c2cccnc2)nc2ccccc12	i
Cc1[nH]n(-c2ccccc2)c(=O)c1C(=O)CN(C(=O)c1ccc2c(c1)OCO2)C(C)C	i
Cc1cc(N2CCN(C)CC2)nc2ccc(NC(=O)Nc3ccccc3Cl)cc12	i
CCN(CC)CCNc1ccnc2cc(Cl)ccc12	i
CCCCC(CC)C(=O)N(CCCC(C)Nc1cc(OC)cc2cccnc12)Cc1ccc(OC)c(OC)c1 (centres undefined)	i
CCOC(=O)c1c(NC(=O)COc2ccccc2[N+](=O)[O-])sc(C(C)=O)c1C	i
COc1ccc(C2CC(=O)C3=C(C2)NC(C)=C(C(=O)OC2CCCC2)C3c2ccc(SC)cc2)cc1OC (centres undefined)	i
N=c1n(CCN2CCCCC2)c2ccccc2n1CC(O)COc1ccc(Cl)cc1 (centres undefined)	i
CCCOC(=O)C1=C(C)NC2=C(C(=O)CC(c3ccc(OC)c(OC)c3)C2)C1c1ccc([N+](=O)[O-])cc1 (centres undefined)	i
Brc1ccc(-c2n(Cc3ccccc3)c3ccccc3[n+]2Cc2ccccc2)o1	i

Part of the list above, as labelled records:
smiles: CCCCC(CC)C(=O)N(CCCC(C)Nc1cc(OC)cc2cccnc12)Cc1ccc(OC)c(OC)c1 (centres undefined)
- P. yoelii liver: i
smiles: Brc1ccc(-c2n(Cc3ccccc3)c3ccccc3[n+]2Cc2ccccc2)o1
- P. yoelii liver: i
smiles: CCCOC(=O)C1=C(C)NC2=C(C(=O)CC(c3ccc(OC)c(OC)c3)C2)C1c1ccc([N+](=O)[O-])cc1 (centres undefined)
- P. yoelii liver: i
smiles: N=c1n(CCN2CCCCC2)c2ccccc2n1CC(O)COc1ccc(Cl)cc1 (centres undefined)
- P. yoelii liver: i

Continuation:
compound	P. yoelii liver
O=C(O)C1Cc2c([nH]c3ccccc23)C(c2ccc(Cl)cc2Cl)N1 (centres undefined)	i
CCCC(=O)Oc1ccccc1-c1nc2cc(C)ccn2c1NC(C)(C)CC(C)(C)C	i
O=[N+]([O-])c1ccc(C=NN2CCN(Cc3ccccc3Cl)CC2)cc1	i
CC(C)N(CCNc1ncnc2c1[nH]c1ccc(Cl)cc12)C(C)C	i
CC(=O)Nc1ccc2c(c1)C(=O)N(C(C(=O)NCC(=O)O)C1CC1)[C@@H](CCC(=O)O)C(=O)N2 (some centres undefined)	i
N=c1c2c(n(Cc3ccc(Cl)c(Cl)c3)c3c1CCC3)CCCC2	i
O=C1CC(C(=O)N2CCC(c3nc(-c4cccnc4)ncc3-c3ccccc3)CC2)c2ccccc21 (centres undefined)	i
CCOC(=O)C1=C(C)NC2=C(C(=O)CC(c3ccc(OC)c(OC)c3)C2)C1c1ccccc1OC (centres undefined)	i
CCOC(=O)N1CCC(NC(=O)CSCc2nc(-c3cccc(OC)c3)oc2C)CC1	i
CCOC(=O)C1=C(CC)NC2=C(C(=O)CCC2)C1c1ccc(OC)c(Br)c1 (centres undefined)	i
O=C1c2ccccc2-c2nnc(-c3ccccc3)cc21	i
C=CCn1cc(C=NNc2nc3ccccc3[nH]2)c2ccccc21	i
COc1ccc2nc(N=C(N)NC(=O)Nc3ccccc3)nc(C)c2c1	i
CCOC(=O)c1c(NC(=O)C(C)Sc2ncnc3c2oc2ccccc23)sc2c1CCC2 (centres undefined)	i
CC1=C2C(=O)c3ccccc3C2NC(=O)N1 (centres undefined)	i
CC1CC(N(C(=O)c2ccc(Cl)cc2Cl)c2ccccc2)c2ccccc2N1C(=O)c1ccc(Cl)cc1 (centres undefined)	3.64µM*
Cc1ccc(C2C3=C(CC(C)(C)CC3=O)N(Cc3ccc4c(c3)OCO4)C3=C2C(=O)CC(C)(C)C3)cc1	i
N#Cc1c2c(c(N3CCN(Cc4ccc(F)cc4)CC3)n3c1nc1ccccc13)CCC2	i
CCC(NC1CCCCC1)c1nc2ccccc2c(=O)n1C (centres undefined)	i
O=C1C(Nc2ccccc2)=C(N2CCCCC2)C(=O)c2ccccc21	i
CC(=O)c1cc(CN2CCC(C(=O)Nc3ccc(-n4nc(C)cc4C)cc3)CC2)cs1	i
COc1nc(N=C(N)N)nc2ccc(C)cc12	i
CC(C)CC(NC(=O)/C(=C\c1ccco1)NC(=O)c1ccccc1)C(=O)OCc1ccccc1 (centres undefined)	i
CCN(CC)S(=O)(=O)c1ccc(-c2csc(=Nc3cccc4ccccc34)n2C)cc1	i
c1ccc(-c2cc(N3CCOCC3)nc(-c3ccccn3)n2)nc1	i
CCNC(=O)NS(=O)(=O)c1cnccc1Sc1cccc(C)c1	i
C[C@H]1[C@@H](O)O[C@@H]2O[C@]3(C)CC[C@H]4[C@H](C)CC[C@@H]1C24OO3	i

Assay outcomes as filed in PubChem.

This is a subset, so the mix of outcomes need not match the whole.
